GIRK2 activ = opens human GIRK2 potassium channels; P48051; HEK293-GIRK2 thallium flux, Thallos fluorescence; calls only for hits at 25 µM; actives 0.05% (n = 63,000); AID 1259325;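 active means among the strongest 0.2% of first-round signals and kept after retests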;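 further: first round at about 10 µM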
Target sequence (P48051 whole entry, looked up): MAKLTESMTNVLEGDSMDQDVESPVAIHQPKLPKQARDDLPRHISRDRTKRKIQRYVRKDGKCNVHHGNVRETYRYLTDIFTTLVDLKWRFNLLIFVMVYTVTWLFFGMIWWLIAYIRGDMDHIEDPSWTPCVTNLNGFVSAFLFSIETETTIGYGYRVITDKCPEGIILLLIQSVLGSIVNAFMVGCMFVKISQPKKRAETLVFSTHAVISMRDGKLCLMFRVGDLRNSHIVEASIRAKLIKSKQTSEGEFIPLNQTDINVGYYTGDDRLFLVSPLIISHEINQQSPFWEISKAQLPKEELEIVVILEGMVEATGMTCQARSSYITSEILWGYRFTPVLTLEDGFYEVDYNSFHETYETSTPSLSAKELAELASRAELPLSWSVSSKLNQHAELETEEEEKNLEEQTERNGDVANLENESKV
Calls only; i = inactive. Only part of the results is shown; rates above refer to the full screens.

SMILES | GIRK2 activ
Cc1ccc(CNc2nccn(-c3ccc(C)c(Cl)c3)c2=O)cc1 | i
O=C(Cc1noc2ccccc12)Nc1nnc(-c2ccsc2)o1 | i
CCOC(=O)c1c(C)n(C)c2ccc(OC(=O)c3cc([N+](=O)[O-])cc([N+](=O)[O-])c3)cc12 | i
O=C(c1ccc(S(=O)(=O)N2CCOCC2)cc1)N1CCC(Cn2ccnc2-c2ccccc2)CC1 | i
O=C(CCCn1cnc(-c2ccccc2)cc1=O)Nc1cc(C(F)(F)F)ccc1Cl | i
O=C(Nc1nc2ccc(Cl)cc2s1)c1ccc(-n2ccnc2)nn1 | i
COc1ccc(/C=C2\Oc3c(ccc4c3CN(Cc3ccco3)CO4)C2=O)c(OC)c1OC | i
CC(Oc1ccccc1)C(=O)NCc1cnn2ccccc12 (centres undefined) | i
COCCSc1nnc(C(C)C)c2cnn(-c3ccc(F)cc3)c12 | i
CC1CCN(S(=O)(=O)c2cccn(CC(=O)N3CCc4ccccc43)c2=O)CC1 | i
CC1(C)Cc2cccc(OCC(=O)Nc3ccc4c(c3)C(=O)N3CCCCC3CCO4)c2O1 (centres undefined) | i
COc1ccc(Cl)cc1-n1nnc(-c2nc(-c3ccccc3F)no2)c1N | i
C[C@H](O)C(O)(C(=O)OCc1ccccc1NC(=O)CCC(=O)O)[C@H](C)O | i
O=C1NC(=Nc2ccccc2)S/C1=C\c1ccc2ncccc2c1 | i
Nc1nc(SCC(=O)c2ccc(Oc3ccccc3)cc2)n[nH]1 | i
O=C(/C=C/c1cccs1)N1CC(c2nc3ccccc3[nH]2)C1 | i
O=C(Cn1c(=O)oc2ccccc21)NCC1COC2(CCCCC2)O1 (centres undefined) | i
CCOc1ccc(NC(=O)NCC#CCN2CCCC2)cc1 | i
CC(=O)c1cccc(NC(=O)c2csc(-n3cccc3)n2)c1 | i
CC(Oc1cccc(F)c1)C(=O)Nc1cc(-n2ccc3ccccc32)ncn1 (centres undefined) | i
COC1CS(=O)(=O)CC1OC (centres undefined) | i
COc1cccc(CC(=O)Nc2ccc(Cn3cnc(C(=O)Nc4cc(C)cc(C)c4)c3)cc2)c1 | i
COc1ccc(-c2ccc(N3CCN(C(=O)Nc4ccc(C)c(F)c4)CC3)nn2)cc1 | i
COc1ccc(S(=O)(=O)N2CCCC2CNC(=O)c2cccc(Cl)c2)cc1 (centres undefined) | i
Cc1ccc(Cl)cc1NC(=O)CN1CCN(S(=O)(=O)c2ccccc2)CC1 | i
O=C(Nc1ccc2c(c1)OCCO2)c1csc(Nc2ccc(OC(F)F)cc2)n1 | i
CN(C)c1ncc(NC(=O)c2ccccc2)cn1 | i
O=C(Nn1cnnc1)C1CCCN(c2cc(-n3cccn3)ncn2)C1 (centres undefined) | i
O=c1c(NCc2ccccc2Cl)nccn1-c1ccc2c(c1)OCO2 | i
Cc1cc(NS(=O)(=O)c2ccc(NC(=O)CN3C(=O)c4ccccc4C3=O)cc2)no1 | i

Another view of part of the listing above:
Structure	GIRK2 activ
COc1cccc(CC(=O)Nc2ccc(Cn3cnc(C(=O)Nc4cc(C)cc(C)c4)c3)cc2)c1	i
COc1ccc(-c2ccc(N3CCN(C(=O)Nc4ccc(C)c(F)c4)CC3)nn2)cc1	i
COc1ccc(S(=O)(=O)N2CCCC2CNC(=O)c2cccc(Cl)c2)cc1 (centres undefined)	i

More records follow.
SMILES | GIRK2 activ
COc1ccc(Br)c(C(=O)NCc2cc(C)oc2C)c1 | i
Cc1cn2c3c(=O)n(CC(=O)c4ccccc4)c(=O)n(C)c3nc2n1C(C)c1ccccc1 (centres undefined) | i
Cc1cccc(Cl)c1NC(=O)Cn1cc(-c2nc(-c3cccs3)no2)ccc1=O | i
CCOc1ccc(N=CNc2ccc(OCC)cc2)cc1 | i
Cc1cc(=O)[nH]c(-n2nc(-c3ccco3)cc2NC(=O)COc2ccc(Cl)cc2)n1 | i
Cc1oc2c3c(ccc2c(=O)c1-c1ccccc1)OCN(CCN1CCOCC1)C3 | i
Cc1cc(NC(=O)CSc2nnc(N3CCN(C(=O)c4cc5ccccc5o4)CC3)s2)no1 | i
Cn1nc(-c2ccc(F)cc2)cc1C(=O)NCC1(c2cccs2)CC1 | i
CN(C)C(=O)Oc1cc(OCc2ccccc2)c2c(=O)cc(-c3ccccc3)oc2c1 | i
Cn1c(=O)n(Cc2ccccc2)c(=O)c2c1nc1n2CCCN1Cc1ccco1 | i
CCn1c(SCC(=O)Nc2ccc(C(=O)OC)cc2)nc2c3cc(OC)ccc3n(C)c2c1=O | i
O=C(NCCc1ccccc1)C(=O)NCCN1CCN(c2ccccc2)CC1 | i
COc1ccc(C(=O)COc2ccc3c(c2)O/C(=C\c2cc(OC)c(OC)cc2OC)C3=O)cc1 | i
COc1ccc(CNC(=O)Cn2c(=O)[nH]c3c(-c4ccccc4F)c[nH]c3c2=O)cc1 | i
O=C(c1ccc(-c2ccccc2)cc1)N1CC(c2nc(C3CC3)no2)C1 | i

By substructure: those above containing an aryl methoxy group.
SMILES | GIRK2 activ
COc1ccc(/C=C2\Oc3c(ccc4c3CN(Cc3ccco3)CO4)C2=O)c(OC)c1OC | i
COc1ccc(Cl)cc1-n1nnc(-c2nc(-c3ccccc3F)no2)c1N | i
COc1cccc(CC(=O)Nc2ccc(Cn3cnc(C(=O)Nc4cc(C)cc(C)c4)c3)cc2)c1 | i
COc1ccc(-c2ccc(N3CCN(C(=O)Nc4ccc(C)c(F)c4)CC3)nn2)cc1 | i
COc1ccc(S(=O)(=O)N2CCCC2CNC(=O)c2cccc(Cl)c2)cc1 (centres undefined) | i
COc1ccc(Br)c(C(=O)NCc2cc(C)oc2C)c1 | i
CCn1c(SCC(=O)Nc2ccc(C(=O)OC)cc2)nc2c3cc(OC)ccc3n(C)c2c1=O | i
COc1ccc(C(=O)COc2ccc3c(c2)O/C(=C\c2cc(OC)c(OC)cc2OC)C3=O)cc1 | i
COc1ccc(CNC(=O)Cn2c(=O)[nH]c3c(-c4ccccc4F)c[nH]c3c2=O)cc1 | i

The results go on.
SMILES | GIRK2 activ
O=C(NCC(F)(F)F)C1CCN(C(=O)c2ccc(=O)[nH]c2)CC1 | i
CCCc1nnsc1C(=O)NCC(C)(O)c1ccco1 (centres undefined) | i
O=C(c1cc(Cl)ccc1Cl)N1CCN(C(=O)C2CC2c2ccc3c(c2)OCO3)CC1 (centres undefined) | i
CCOC(=O)c1c(-c2ccccc2)oc2ccc(OC(=O)N3CCOCC3)cc12 | i
CCOc1ccc(-c2ccc(N3CCN(C(=O)c4cc(-c5ccco5)[nH]n4)CC3)nn2)cc1 | i
CCOC(=O)C1(CCCCCCOc2ccc(Cl)cc2)CO1 (centres undefined) | i
CSc1cccc(NC(=O)Nc2ccc(Nc3cc(-n4cccn4)ncn3)cc2)c1 | i
O=C(NCc1cccnc1)c1sccc1S(=O)(=O)N1CCN(c2ccccc2Cl)CC1 | i
CCOc1ccc(-n2c(C)c(C)n3c4c(=O)n(CCN5CCCCC5)c(=O)n(C)c4nc23)cc1 | i
COc1ccc(-c2noc(-c3cccn(CC(=O)Nc4ccc5c(c4)OCO5)c3=O)n2)cc1OC | i
COCC(=O)NCc1ccc(C(O)c2cccs2)s1 (centres undefined) | i
COc1ccc(CCNC(=O)c2cnn3c(-c4ccccc4F)ccnc23)cc1OC | i
Cc1ccc(S(=O)(=O)N(C)c2c(C)ccc(S(=O)(=O)NC(C)(C)C)c2C)cc1 | i
COc1cc(OC)cc(N2C(=O)C3N=NN(c4ccc(C)c(C)c4)C3C2=O)c1 (centres undefined) | i
CC(C)(C)c1ccc(C(=O)N2CCN(CC(F)(F)F)CC2)cc1 | i
COc1ncc(C(=O)NCc2ccc(Br)cc2)cn1 | i
NC(=O)c1ccccc1OCC#CCNC(=O)CN1C(=O)CCC1=O | i
COc1ccc(C(F)(F)F)cc1NC(=O)CCCSc1ccc(NC(C)=O)nn1 | i
Cc1ccc(-n2nnc(C(=O)N3CCN(c4ccccc4)CC3)c2-n2cccc2)cc1 | i
O=C(c1cc(-c2ccco2)[nH]n1)N1CCC(Oc2ccccn2)CC1 | i
O=S1(=O)CCCCN1c1ccc(S(=O)(=O)N(Cc2ccccn2)Cc2ccco2)cc1 | i
O=C(c1cccc(-n2cnnn2)c1)N1CCn2c1nc1ccccc12 | i
CCOC(=O)N1CCN(C(=O)c2cc(-c3ccco3)[nH]n2)CC1 | i
O=C(CCCn1cccc1)N1CCN(c2ncccn2)CC1 | i
COC(=O)C1c2ccsc2CCN1C(=O)Cn1cccn1 (centres undefined) | i
O=C(COc1ccccc1F)NCc1cc(-c2cccs2)n(C2CCCC2)n1 | i
COCCNC(=O)NCC1(c2ccc(F)cc2)CC1 | i
CC(C)(C)C(=O)NCC(C)(O)c1cccs1 (centres undefined) | i
O=C(CN1N=NC2C(=O)N(c3ccc(Cl)cc3)C(=O)C21)Nc1ccccc1 (centres undefined) | i
COc1ccc2c(c1)c1nc(SCC(=O)NC(C)CCc3ccccc3)n(C)c(=O)c1n2C (centres undefined) | i
CC(=O)c1cccc(NC(=O)CN2CCC(c3nc(-c4ccc(C)cc4)no3)CC2)c1 | i
O=C1/C(=C/c2ccccc2Cl)Oc2c1ccc1c2CN(CCN2CCOCC2)CO1 | i
O=C(Nc1cccc(OC(F)(F)F)c1)c1nnn(-c2ccccc2F)c1-c1ccccn1 | i
COc1ccc(CCNC(=O)CSc2nccn3nc(-c4ccc(Cl)cc4)cc23)cc1OC | i
O=c1ccc(-c2cccs2)nn1Cc1ccc(Cl)cc1Cl | i
O=C(Cn1cnc2ccccc21)NCCOc1ccc(F)cc1 | i
Cc1csc(C(=O)NCc2ccc(C(=O)c3cccs3)s2)c1 | i
CCOc1ccc(CC(=O)Nc2cc(-c3cccs3)nn2-c2nc(-c3ccccc3)cc(=O)[nH]2)cc1 | i
Cc1cc(C)n(-c2ccc(C(=O)Nc3cccc(-c4csc(C)n4)c3)nn2)n1 | i
Cc1ccccc1-c1noc(Cn2c(=O)n(CC(C)C)c(=O)c3ccccc32)n1 | i
Cc1noc(-c2cccnc2N2CCC(NC(=O)c3ccccc3)C2)n1 (centres undefined) | i
COc1cccc(C(=O)Nc2nc3c(s2)CN(S(C)(=O)=O)CC3)c1OC | i
CCCNC(=O)CSc1nnc(N2CCN(c3ccccc3)CC2)s1 | i
CSCC(C)(O)CNS(=O)(=O)c1c(F)cccc1F (centres undefined) | i
CCOc1cc(C)c(S(=O)(=O)N2CCC(C(N)=O)CC2)cc1C | i

Arranged by number of heavy atoms (rising): 6 of the compounds above.
SMILES | GIRK2 activ
O=C(Cn1cnc2ccccc21)NCCOc1ccc(F)cc1 | i
CCCNC(=O)CSc1nnc(N2CCN(c3ccccc3)CC2)s1 | i
COc1cccc(C(=O)Nc2nc3c(s2)CN(S(C)(=O)=O)CC3)c1OC | i
O=C1/C(=C/c2ccccc2Cl)Oc2c1ccc1c2CN(CCN2CCOCC2)CO1 | i
COc1ccc(CCNC(=O)CSc2nccn3nc(-c4ccc(Cl)cc4)cc23)cc1OC | i
CCOc1ccc(CC(=O)Nc2cc(-c3cccs3)nn2-c2nc(-c3ccccc3)cc(=O)[nH]2)cc1 | i

Next section
SMILES | GIRK2 activ
O=C(C1CCCC1)N1CCC2(CC1)OCCS2 | i
COCCNC(=O)c1c(N)n(/N=C\c2c[nH]c3ccccc23)c2nc3ccccc3nc12 | i
O=C(Nc1cccc2c(=O)cc(-c3nn[nH]n3)oc12)c1ccc(OCCCCc2ccccc2)cc1 | i
COc1ccc(-c2nc(-c3cn(-c4ccccc4)nn3)no2)c(OC)c1 | i
O=C(CCCSc1ccc(NC(=O)c2ccc(F)cc2)nn1)NCc1ccco1 | i
O=S(=O)(Cc1ccccc1)NCC1(O)CCOc2ccccc21 (centres undefined) | i
COc1ccc(-c2csc(CN3CCN(C(C)=O)CC3)n2)cc1 | i
COc1ccccc1N1CCN(CCNC(=O)COc2ccc3ccccc3c2)CC1 | i
NC(N)=NC(=O)c1nc(Cl)c(N)nc1N | i
CC(=O)Nc1ccc(NC(=O)CCCn2nnc3ccccc3c2=O)cc1 | i
CCOC(=O)C1=C(C)N=c2s/c(=C3\C(=O)Nc4ccccc43)c(=O)n2C1c1ccc(OC)cc1 (centres undefined) | i
COc1ccccc1NC(=O)CN1CN(c2ccc(F)cc2)c2ncccc2S1(=O)=O | i
O=C(NCC(c1cccs1)N1CCOCC1)C1CCC1 (centres undefined) | i
O=C1C(=C2CCCC2)Oc2ccc(O)cc21 | i
CCCn1c(=O)c2ccc(C(=O)NC3CCCCC3)cc2n2c(SCC(N)=O)nnc12 | i
O=C(Cn1cccc(S(=O)(=O)N2CCCCCC2)c1=O)NCc1ccccc1Cl | i
CC(=O)c1sc(NC(=O)Nc2cccs2)nc1-c1ccccc1 | i
O=C(c1cc2cccnc2n(Cc2ccccc2F)c1=O)N1CCN(c2ccccc2Cl)CC1 | i
CCOc1ccc(-c2csc(-c3nnn(-c4cc(OC)cc(OC)c4)c3N)n2)cc1 | i
O=C(Nc1ccc2c(c1)OCCO2)c1cc(=O)c(OCc2ccc(F)cc2)c[nH]1 | i
COc1ccccc1NC(=O)CSc1cc(NCc2ccccc2Cl)ncn1 | i
COc1ccc(C)c2sc(N(Cc3cccnc3)C(=O)c3cc(C)no3)nc12 | i
CCC(C(=O)Nc1ccc(-n2nnc(C(=O)NC3CC3)n2)cc1)c1ccccc1 (centres undefined) | i
Cc1ccc(S(=O)(=O)c2nc(S(=O)(=O)C3CCCCC3)sc2NCc2cccnc2)cc1 | i
Cc1ccccc1C(=O)N1CCC(CSC2=NCCS2)CC1 | i
COCCn1c(-n2nc(C)cc2C)nc2c1c(=O)n(C)c(=O)n2C | i
COCc1c(C(=O)Nc2cc(Cl)ccc2Cl)nnn1-c1ccc(Cl)cc1 | i
O=C(NCc1nc(-c2ccccc2)no1)c1cc(-c2ccco2)on1 | i
CCCCn1c(=O)c2c(nc3n(CCCl)c(C)c(C)n23)n(C)c1=O | i
COc1ccccc1OCCn1c(CCO)nc2ccccc21 | i
CCc1ccc(S(=O)(=O)N2CC3(COC(C)(C)OC3)C2)s1 | i
O=C(CCCS(=O)(=O)Cc1ccccc1)N(Cc1ccccc1)c1nc2ccc(F)cc2s1 | i
Cc1cc(CNS(=O)(=O)c2ccc(Br)s2)c(C)o1 | i
CC1CCN(c2cc(NC(=O)CSc3nnnn3C)ncn2)CC1 | i
O=C(Cn1c(=O)cnc2cc(S(=O)(=O)N3CCCCC3)ccc21)Nc1ccccc1F | i
O=C(NCc1ccc2c(c1)OCO2)C1CCN(c2ncccc2-c2nc(-c3ccccc3)no2)CC1 | i
CCCc1nnsc1C(=O)NCc1nc(COc2ccc(OC)cc2)no1 | i
